gsp antagonist = antagonists of gsp mutant (McCune-Albright syndrome); gsp-mutant cells, cAMP HTRF, 30 min; control for the full effect not named in the record; Potency, µM (series often up to 76.9 µM), without a hit: at the highest dose activity change, negative = inhibition, actives largely listed as inhibitors; 340,000 tested, 0.4% active; AID 624288; active = falling curve of any shape with a large fitted effect; inconclusive = falling curve, mostly with a smaller effect; inactive = flat or rising curve; cell line not stated here;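 further: intracellular cAMP measured with PDE inhibitor Ro 20-1724 present during compound exposure; potency means the concentration at half of the fitted maximal effect; on the % scale 0 is the no-effect control and ±100 the full control effect; nearly all actives have a fitted effect of over 65% in size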
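HTRF cAMP measurement after 30 min RT detection following 30 min, 37C compound treatment alongside […] (added as 300 uM solution) in G418-selected cells seeded at 2000/well and grown 16–24 h.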
gsp agonist = activates gsp, the McCune-Albright syndrome mutation; gsp mutant cells, cAMP HTRF, 30 min; control for the full effect not named in the record; Potency, µM (titrated, usually from 76.9 µM), without a hit: top-dose activation (cAMP increase), actives largely listed as activators; 340,000 tested, 0.13% active; AID 624287; active = well fitted activation curve with a large enough effect; inconclusive = small, poorly fitted or top-dose-only effect, or another doubt; inactive = no such curve, though single readings can be large or run the other way; cell line not stated here;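 further: phosphodiesterase inhibitor Ro 20-1724 added with compounds to block cAMP breakdown; potency means the concentration at half of the fitted maximal effect; nearly all actives have a fitted effect of over 60% in size; about a fifth of the inactives were tested at one dose only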
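Cells stably selected in G418 were plated at 2000/well, grown 16-24 hr, then given compounds in DMSO with the PDE inhibitor […] (300 uM solution added) for 30 min at 37C; cAMP was read by HTRF.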
Sfp inh = blocks B. subtilis Sfp PPTase activity; Q9F4F7; Biochemical Sfp PPTase activity, qHTS; Potency, µM, without a hit: max response, negative = inhibition, most hits filed as inhibitors; 310,000 tested, 3.5% active; AID 1490; active means well fitted inhibition curve with a large enough effect; inconclusive means small, poorly fitted or top-dose-only effect, or another doubt; inactive means no such curve, though single readings can be large or run the other way;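 further: the enzyme is Sfp with the accession as filed and its product quenches rhodamine fluorescence; potency means the concentration at half of the fitted maximal effect; 0% = enzyme reaction without inhibitor and -100% = no enzyme wells; top concentration of the series not given in the record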
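Step 1, compound plus 15 nM Sfp-PPTase, 15 min, room temperature. Step 2, add rhodamine-CoA (5 uM) and BHQ-2-YbbR (12.5 uM). Step 3, read 525/598 nm fluorescence at 0 and 30 min.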
Menin MLL FP FL = displaces fluorescein MLL peptide from human menin; Fluorescence polarization, fluorescein-MLL peptide displacement from menin; FP activity change, % at 61.4 µM; 290,000 tested, under 10 active; inconclusive = falling polarisation curve, or a change in total fluorescence; inactive = total fluorescence flat and polarisation flat or rising; no compound was filed as active; the % refers to the polarisation; negative = inhibition;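 further: % of control where 0% means no effect; inhibitors lower the polarisation; unlabelled MLL peptide was the positive control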
TRPV1 potentiator = enhances activation of the human vanilloid receptor TRPV1; Q8NER1; TRPV1-expressing cells, Fluo-8 calcium influx, capsaicin EC20 potentiation; host cell line not named in the record; control for the full effect not named in the record; potentiation, % at 8.33 µM; 320,000 tested, 0.02% active; AID 540277; active means potentiation above 80%; inconclusive means 30% to 80%; inactive means below 30%; further: 0% is about no effect
Target sequence (Q8NER1 whole entry, looked up): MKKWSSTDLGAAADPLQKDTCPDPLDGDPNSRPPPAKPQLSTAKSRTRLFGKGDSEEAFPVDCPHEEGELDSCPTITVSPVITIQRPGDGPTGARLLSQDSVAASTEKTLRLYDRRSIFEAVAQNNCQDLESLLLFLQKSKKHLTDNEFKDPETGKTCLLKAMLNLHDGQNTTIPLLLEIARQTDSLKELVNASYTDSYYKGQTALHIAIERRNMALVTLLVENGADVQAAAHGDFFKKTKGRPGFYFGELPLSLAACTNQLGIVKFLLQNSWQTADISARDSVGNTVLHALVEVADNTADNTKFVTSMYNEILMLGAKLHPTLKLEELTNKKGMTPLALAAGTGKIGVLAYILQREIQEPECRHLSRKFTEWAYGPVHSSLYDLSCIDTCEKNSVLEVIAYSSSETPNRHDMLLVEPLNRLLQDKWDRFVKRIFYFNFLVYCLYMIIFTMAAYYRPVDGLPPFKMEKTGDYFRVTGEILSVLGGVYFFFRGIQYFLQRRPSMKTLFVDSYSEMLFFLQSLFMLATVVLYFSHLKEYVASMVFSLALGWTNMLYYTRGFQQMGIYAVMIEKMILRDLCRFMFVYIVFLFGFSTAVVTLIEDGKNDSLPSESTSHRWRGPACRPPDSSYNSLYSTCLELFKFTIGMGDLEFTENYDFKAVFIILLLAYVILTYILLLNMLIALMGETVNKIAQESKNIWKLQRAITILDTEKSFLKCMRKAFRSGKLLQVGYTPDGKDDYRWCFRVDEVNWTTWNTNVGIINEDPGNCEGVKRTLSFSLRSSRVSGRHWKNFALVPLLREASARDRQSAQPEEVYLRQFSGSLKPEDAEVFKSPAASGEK
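TRPV1-expressing cells were cultured overnight at 35.5C and loaded with Fluo-8 calcium dye for 40 to 90 min at room temperature. After a 10 s baseline, compound was added and calcium influx was read kinetically for 3 min (ex 480/em 520 nm).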
ClpP mod = qHTS Assay for Activators of ClpP; ATP-dependent Clp protease proteolytic subunit (Bacillus subtilis (strain 168)), P80244; purified B. subtilis ClpP, FRET peptide cleavage, 20 min; Potency, µM (series often up to 57.5 µM), for inactives: at the highest dose activity change, negative = active; 340,000 tested, 1.9% active; AID 651965, 2013; active = well fitted falling curve with a large enough effect; inconclusive = small, poorly fitted or top-dose-only effect; inactive = no such curve, though single readings can be large or run the other way; further: potency means the concentration at half of the fitted maximal effect; the source files actives as falling curves though it sought activators and does not explain the sign; nearly all actives have a fitted effect of over 65% in size; many hits overshoot -100%
Target sequence (P80244 whole entry, looked up): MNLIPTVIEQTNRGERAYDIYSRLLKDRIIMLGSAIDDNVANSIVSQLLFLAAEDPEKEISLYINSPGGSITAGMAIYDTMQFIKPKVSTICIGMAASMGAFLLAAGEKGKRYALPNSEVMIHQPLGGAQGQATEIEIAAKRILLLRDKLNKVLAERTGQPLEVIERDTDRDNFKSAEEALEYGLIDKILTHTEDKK
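FRET quenching reversal measured ClpP activation: 10 microg/mL B. subtilis ClpP at pH 8 with the FRET-FV decapeptide, read at 430 nm after 320 nm excitation. The 20-min minus 0-min signal was scaled between DMSO/no-enzyme wells and ADEP (5.8 microM final).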
CtBP-E1A inh = CtBP/E1A binding inhibition | AlphaScreen GST-E1A/His-CtBP binding, 1536-well; hits give low values; control for the full effect not named in the record | 340,000 tested, 0.49% active | activity change, % (concentration not given with the values) | AID 651724; in the data active means activity change below about -65%; inconclusive means about -30% to -65%; inactive means above about -30%; further: on the % scale 0 is the no-effect control and ±100 the full control effect
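Homogeneous bead-based format: GST-tagged E1A captured on glutathione donor beads, His-tagged CtBP on nickel acceptor beads; compounds precede bead addition by 2 h at 37 °C.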
* = called active by the depositor; ? = inconclusive; . = not tested or not shown; [ ] = another dose, or the depositor's remark.

SMILES	gsp antagonist	gsp agonist	Sfp inh	Menin MLL FP FL	TRPV1 potentiator	ClpP mod	CtBP-E1A inh
CCN1CCCC1CNC(=O)Cn1nc(C)n2c(cc3cc(F)ccc32)c1=O (configuration not stated)	12.6%	-43.3%[inhibitor]	8.2%	.	1.7	3.9%	-6.6
Nc1nnc(SCCCC(=O)c2ccccc2)s1	-4.1%	3.3%	13.5%	2.7	-9.1	-2.0%	0.0
Cc1nn(C)cc1S(=O)(=O)Nc1ccc2c(c1)OCCO2	13.6%	13.4%[15.4 µM]	14.5%	-11.1	-8.5	.	.
COc1ccc(NC(=O)CCl)cn1	.	.	?	?	27.1	.	.
Cc1ccc(C(=O)NC(=S)Nc2cccc3nsnc23)cc1	0.1%	?	14.1µM*	-7.1	-6.9	0.0%	-0.1
CCN(CC)C(=O)c1sc(NC(=O)c2ccc(OC)c([N+](=O)[O-])c2)c(C#N)c1C	.	.	19.7%	-2.0	-2.9	.	.
COC(=O)c1cc(S(=O)(=O)NCCN2CCOCC2)cn1C	18.4%	?	9.9%	2.4	-2.7	0.1%	4.8
CCCc1nnc(NC(=O)c2c(O)c3cccc4c3n(c2=O)CC4)s1	-0.7%	-44.0%[inhibitor]	11.8%	0.4	-23.2	-11.5%	-1.1
O=C(CSc1ccc2ccccc2n1)NCCCN1CCCC1=O	1.1%	-2.0%	.	.	.	-4.8%	5.9
O=C(NNC(=O)C1CCN(S(=O)(=O)c2ccc(Cl)cc2)CC1)c1ccccc1	-5.3%	?	-20.5%	4.5	?	1.2%	1.2
CCc1ccc([C@@H]2C[C@H]3[C@@H](CN2S(=O)(=O)c2ccc(C)cc2)C(=O)C[C@@H](c2cccc(Cl)c2)N3S(=O)(=O)c2ccc(C)cc2)cc1	.	2.7%	.	.	.	2.0%	2.5
O=C(CN1CCOCC1)Nc1nc(-c2ccccc2Cl)cs1	8.0%	-8.1%	20.6%	-0.1	14.0	-1.4%	-4.8
O=C(Cn1ncc(Cl)c(Cl)c1=O)N1CCOCC1	-4.2%	-16.8%	12.2%	0.7	1.1	.	6.0
COc1ccc(C(=O)NCCCn2ccnc2)cc1	7.9%	-20.0%	7.9%	1.4	-11.5	0.7%	6.2
O=C1CCCc2nn(-c3ccccc3)c(-c3ccncc3)c21	-9.5%	2.4%	14.7%	4.0	-12.8	-1.7%	-0.2
CCOc1ccc(-c2nc(CSCC(=O)NCCCN3CCCC3=O)c(C)o2)cc1	-0.5%	-31.9%[inhibitor]	18.4%	-0.8	-9.2	3.7%	0.4
Cc1ccccc1OCCCC(=O)Nc1ccc(N2CCOCC2)cc1	0.5%	-2.0%	-4.5%	3.7	-12.4	-1.8%	-21.9
O=C(Nc1ccc(Br)cc1F)C1CCCN(S(=O)(=O)c2cnc[nH]2)C1 (configuration not stated)	-2.7%	-30.2%[inhibitor]	12.2%	1.0	-2.7	1.7%	-2.8
COC(=O)c1cc(C(=O)c2ccc(Cl)cc2)n2c(=O)/c(=C\N(C)C)sc12	-8.0%	-29.1%	5.5%	?	-21.2	-1.6%	2.2
O=C(c1ccccc1)N1CCCC(C(=O)N2CCCCC2)C1 (configuration not stated)	5.9%	1.5%	11.6%	2.2	-2.9	0.7%	.
Cc1ccc(S(=O)(=O)N2CCN(Cc3ccco3)CC2)c(C)c1	-8.8%	6.3%[15.4 µM]	7.4%	.	-1.0	.	-10.3
Cc1ccc(CNC(=O)CS(=O)Cc2nc(-c3cccs3)oc2C)cc1 (configuration not stated)	-11.1%	-2.0%	8.1%	-2.0	2.1	-2.3%	-8.1
Cc1ccc(NC(=O)CN2C(=O)C3C4C=CC(C4)C3C2=O)cc1 (configuration not stated)	10.5%	-11.5%[15.4 µM]	15.4%	-0.5	-4.5	.	-17.6
O=C(/C=C/c1ccccc1)NCCN1CCOCC1	7.2%	4.3%	-3.2%	3.8	2.1	1.7%	-0.7
CCC1=NN(C(=O)c2ccc(Br)cc2)C(O)(c2ccc(C)cc2)C1 (configuration not stated)	-3.4%	-34.4%	15.4%	0.5	1.1	2.3%	-10.0
CCOC(=O)c1nn(-c2ccccc2C)c2nc(-c3ccc(Cl)cc3)c(C#N)c(=O)n12	-6.8%	16.9%	8.1%	1.2	2.1	31.6µM*	0.8
C=CC[C@@H](CC(=O)NCCO)C(=O)N[C@@H](COC(=O)[C@@H](CC=C)Cc1ccc(F)cc1)Cc1ccccc1	2.9%	-2.2%	.	.	.	0.9%	-8.0
CS(=O)(=O)N(Cc1ccccc1)c1ccccc1C(=O)O	4.8%	-48.2%[inhibitor]	18.4%	-1.9	-9.1	-1.4%	5.5
O=C(Cc1ccc(Br)cc1)NCCN1CCOCC1	4.2%	-37.3%[inhibitor]	14.6%	0.5	11.3	.	0.5
CCOC(=O)COc1cccc2c(=O)n(CC(=O)NCc3ccc(F)cc3)ccc12	10.7%	-27.5%	-3.6%	2.0	-6.8	-8.1%	.
COC(=O)c1cc(S(=O)(=O)NCC2CCN(Cc3cc(C)ccc3C)CC2)c[nH]1	1.4%	13.6%	-6.1%	0.0	-0.5	0.5%	1.8
O=C(CCN1C(=O)c2ccccc2C1=O)N1CCC(c2ccccc2)C1 (configuration not stated)	3.7%	-31.3%[inhibitor]	4.1%	1.0	1.0	-0.4%	-0.3
Cc1ccc(CN2CCC[C@]3(N[C@H](c4ccc(C(F)(F)F)cc4)[C@@H]4C(=O)N(Cc5ccccc5)C(=O)[C@@H]43)C2=O)cc1	.	-2.9%	.	.	.	0.8%	6.4
Cc1cc(C2=NNC(=NC3CC3)SC2)c(C)n1-c1c(C)n(C)n(-c2ccccc2)c1=O	8.7%	-2.1%[15.4 µM]	?	-1.6	3.1	.	0.3
CCc1c(C)sc(NC(=O)c2cccs2)c1C#N	5.4%	3.6%	?	?	-3.2	-19.7%	-4.1
O=C(CSc1nc2cc(Cl)ccc2o1)c1cccs1	-36.5%	7.4%	-2.3%	-0.6	-22.5	0.8%	15.4
O=C(OCC(CO)OC(CO)n1ccc(=O)[nH]c1=O)c1ccccc1 (configuration not stated)	6.7%	-8.5%	6.7%	0.9	-2.4	0.1%	0.0
COc1ccc(NC(=O)CN(c2ccc(C(C)C)cc2)S(=O)(=O)c2c(C)noc2C)cc1OC	3.4%	0.1%	7.3%	1.1	-0.6	-0.4%	4.0
CCCCC(CC)CNC(=O)C1CCCN(S(=O)(=O)c2cnc[nH]2)C1 (configuration not stated)	2.5%	-26.4%	-4.9%	-0.4	20.8	0.3%	6.0
C=CC[C@@H](CC(=O)N[C@@H](CO)Cc1ccccc1)C(=O)N[C@H](COC(=O)[C@@H](CC=C)CC(=O)OC(C)(C)C)Cc1ccccc1	-0.6%	.	.	.	.	1.8%	1.0
Cc1cc(NC(=O)CSc2nc3c(c(=O)n2-c2ccc(Br)cc2)SCC3)no1	-3.6%	12.5%	-8.2%	0.6	-70.5	-0.7%	11.4
O=C(NC(=O)N1CCCc2ccccc21)c1ccccc1	5.3%	10.5%[15.4 µM]	8.2%	-4.8	-2.1	.	0.0
COCCN1C(=O)/C(=C/c2cc3c(cc2Br)OCO3)NC1=S	-3.8%	0.3%[15.4 µM]	-16.2%	7.3	9.8	.	.
CCn1c(SCC(=O)Nc2ccccc2Br)nnc1-c1cnccn1	6.5%	1.2%	9.7%	.	5.3	-1.5%	0.5
COc1cc2oc(-c3ccc(O)cc3)cc(=O)c2c(OC)c1O	-0.7%	7.0%	?	4.2	5.3	-3.1%	.
Cc1nc2sccn2c(=O)c1Br	10.7%	29.1%	-7.0%	5.2	2.9	-13.8%	-4.0
CCc1ccc(Nc2nnc(SCC(=O)NC(=O)CN3CCCC3=O)s2)cc1	-3.7%	-30.4%[inhibitor]	.	.	-6.1	2.4%	1.3
O=C(COC(=O)C1CC2CCCC(C1)C2=O)Nc1ccc(F)c(Cl)c1 (configuration not stated)	-4.9%	10.3%	.	.	.	-0.4%	.
CCOC(=O)c1ccc(NC(=O)NCCc2ccccc2OC)cc1	-28.4%	19.6%	19.2%	0.0	-11.1	-0.7%	8.1
Cc1c(-c2ccccc2)nc2ccccc2c1C(=O)NCc1cccs1	-1.9%	-22.5%	?	1.8	-30.2	1.0%	8.1
O=C(Nc1ccc2c(c1)OCO2)C1CCN(S(=O)(=O)Cc2ccccc2)CC1	-19.6%	3.7%	0.6%	-2.6	16.2	1.1%	-0.6
O=C(Nc1ccccc1C1CC1)c1cccs1	1.2%	4.0%	-11.6%	2.7	?	-0.4%	8.6
O=C(CSc1nnc2ccccn12)NC(=O)c1ccccc1	-5.3%	-1.7%	.	.	-21.6	99.0%	.
CC(=O)Nc1cccc(O)c1	7.3%	.	14.1%	-3.0	-1.5	1.1%	9.0
Cc1cc(C)nc(SCC2COc3ccccc3O2)n1 (configuration not stated)	-4.6%	?	0.9%	0.1	2.4	-1.5%	24.5
COc1cc(C(=S)N2CCOCC2)ccc1OC(=O)/C=C/c1ccco1	7.1%	-0.6%	56.2µM*	7.4	28.2	-4.6%	-16.2
CC(C)(CNCC(O)c1ccccc1)N1CCOCC1 (configuration not stated)	8.4%	-5.3%	6.1%	8.3	29.0	-5.9%	-10.3
CCNC(=S)N/N=C/c1sccc1C	.	.	12.7%	-1.4	2.3	.	.
O=C(CNC(=O)c1cccs1)OCC(=O)c1ccc(Cl)cc1	-2.6%	-81.2%[inhibitor]	9.3%	-6.4	0.1	2.8%	.
Cc1ccc(CN2C(=O)C(=O)c3cc(C)ccc32)cc1	9.9%	.	.	.	.	-0.7%	-0.4
Cc1csc(NC(=O)CSc2nc3ccccc3c3c2CCCC3)n1	-17.6%	23.6%[15.4 µM]	-7.8%	1.7	1.8	.	-9.4
CCOc1ccc(NC(=O)CN(C)C(=O)CCCOc2ccc(Br)cc2)cc1OCC	-6.2%	-55.9%[inhibitor]	.	.	3.3	-1.1%	-15.6
CCC(=O)n1nc(-c2ccc(OC)cc2)nc1NCc1cccs1	4.5%	-15.6%	7.8%	-4.6	7.7	0.7%	8.0
